Source: PubChem BioAssay
Bfl-1 A1 inh – caspase 3/7 activation in MEF A1-2A-BIM cells, primary screen, A1 inhibitor project, cell-based, luminescence, HTS. caspase activation, % (concentration not given with the values). AID 2462, 2010. Caspase-Glo 3/7 luminescence, 3 h; percent of clofoctol response, vehicle zero. 330,000 tested, 0.066% active;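 active = over half of replicate activation scores above 10%, or exactly half above 10 with the replicate mean above 10; inconclusive = replicate mean below 10 yet half the replicates above 10; inactive = over half of replicates below 10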;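 also: wells of about 30 µL received 50 nL stock; many hits fall short of the cut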
FGF22 binding – binders of human FGF22 protein, primary screen, FGF22 synaptogenesis inhibitor project, biophysical, thermal shift, single point | Fibroblast growth factor 22 (Homo sapiens), Q9HCT0 | recombinant FGF22 thermal shift, SYPRO orange fluorescence; percent of sucrose octasulfate shift, DMSO zero | calls only at 9.99 µM | 340,000 tested, 1.5% active;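 active = melting point raised past a set limit in the mean and every replicate; inconclusive = no clear call; three in four hits are not shown here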
Target sequence (Q9HCT0 whole entry, looked up): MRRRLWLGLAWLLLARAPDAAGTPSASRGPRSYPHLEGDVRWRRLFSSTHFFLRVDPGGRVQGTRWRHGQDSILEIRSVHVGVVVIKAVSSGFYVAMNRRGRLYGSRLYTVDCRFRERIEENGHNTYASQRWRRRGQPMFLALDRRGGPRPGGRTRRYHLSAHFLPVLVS
Ecoli rRNA inh – reduced GFP signal of wild-type E. coli, primary screen, bacterial rRNA inhibitor project, GFP/RFP fluorescence, OD600, single point; E. coli WT GFP vs humanized-ribosome RFP mutants, 24 h; active compounds read low; DMSO median 0, no signal -100; GFP signal change (wild-type ribosome), % (no concentration beside the values); AID 720706, 2013; 350,000 tested, 1.6% active;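 active = significant combined selectivity score with lowered wild-type GFP, culture density cut under 30%, mutant RFP and density less affected; inactive = any of these conditions unmet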; also: one replicate is shown; some compounds called inactive have numbers as strong as hits
T cruzi repl – inhibitors of intracellular T. cruzi growth, primary screen, luminescence, NIH3T3 host cells. T. cruzi beta-gal in NIH3T3, 90 h. inhibition, % (no concentration beside the values). 300,000 tested, 1.4% active. AID 1885, 2009;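 active = mean inhibition across valid replicates above about 55%, limit read from the data; inconclusive = mean below that limit but half or more replicates reach it; inactive = mean below it, under half of replicates reach it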;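 also: signal also drops with host cell toxicity which is not excluded here; 0% = plate median of DMSO wells and 100% = zero luminescence signal; higher percent means less beta-gal luminescence so fewer parasites; stock transfer was 50 nL into about 50 µL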
Beta cell apopt – inhibitors of cytokine-induced beta cell apoptosis, primary screen, luminescence; INS-1E cytokine-induced death, ATP luminescence, 48 h; percent of positive-control rescue, neutral wells zero; protection from apoptosis, % (concentration not given with the values); 300,000 tested, 0.8% active; AID 435005, 2010;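 active = all replicates at 75% or more, or half of them and the mean; inconclusive = half reach 75% but not the mean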;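 also: 0% = cytokine-treated negative control wells and 100% = positive control rescue; higher means more ATP so stronger rescue from cytokine killing; wells of about 40 µL received 100 nL stock; the first replicate is given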
Ecoli growth – E. coli growth inhibition, primary screen, OD600; Escherichia coli growth, 23 h; active compounds read low; OD600 absorbance (test concentration not listed); 330,000 tested, 0.21% active;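 active = OD600 absorbance below the run mean of sample wells minus 3.6 SD, in any replicate, cut at about 0.56 in these data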;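 also: stock transfer was 300 nL into about 60 µL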
AF4-AF9 inh – inhibitors of AF4 peptide binding to AF9, primary screen, biochemical, AlphaScreen, biotin-AF4 peptide, FLAG-AF9, single point; 350,000 tested, 0.47% active; inhibition, % at 10 µM;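 active = every replicate reaching a set inhibition limit, whatever the replicate mean, cut at about 25% in these data; inconclusive = mean inhibition reaches that limit but some replicates miss it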;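 also: 0% = plate neutral control median and 100% = total signal loss; the record names both 10 and 1 µM as test concentration; the first replicate is given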
Target sequence (P42568 whole entry, looked up): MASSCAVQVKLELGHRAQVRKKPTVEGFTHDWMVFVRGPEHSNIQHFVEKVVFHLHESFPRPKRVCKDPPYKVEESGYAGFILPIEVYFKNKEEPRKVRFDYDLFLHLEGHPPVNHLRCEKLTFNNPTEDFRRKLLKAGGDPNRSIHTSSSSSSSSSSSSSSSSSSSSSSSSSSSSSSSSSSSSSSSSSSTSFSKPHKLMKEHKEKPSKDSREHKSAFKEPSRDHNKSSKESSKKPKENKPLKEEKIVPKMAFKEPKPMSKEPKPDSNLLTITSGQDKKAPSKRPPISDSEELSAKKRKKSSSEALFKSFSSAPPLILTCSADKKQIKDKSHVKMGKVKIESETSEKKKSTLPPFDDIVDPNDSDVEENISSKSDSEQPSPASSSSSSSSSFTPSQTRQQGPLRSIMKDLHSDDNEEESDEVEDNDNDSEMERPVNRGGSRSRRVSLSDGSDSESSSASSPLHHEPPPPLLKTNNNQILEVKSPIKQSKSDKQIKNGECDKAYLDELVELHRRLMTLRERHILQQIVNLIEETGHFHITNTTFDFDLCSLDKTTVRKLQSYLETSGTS
UCH37 inh – inhibitors of human UCH37 deubiquitinase, primary screen, biochemical, Ub-AMC cleavage, fluorescence; AID 588478, 2011; inhibition, % (no concentration beside the values); purified proteasome/UCH37; 330,000 tested, 0.33% active;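 active = mean of two replicates above 20%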;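 also: 0% = compound-free wells with enzyme and 100% = wells lacking proteasome; stock transfer was 100 nL into about 20 µL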
Target sequence (Q9Y5K5 whole entry, looked up): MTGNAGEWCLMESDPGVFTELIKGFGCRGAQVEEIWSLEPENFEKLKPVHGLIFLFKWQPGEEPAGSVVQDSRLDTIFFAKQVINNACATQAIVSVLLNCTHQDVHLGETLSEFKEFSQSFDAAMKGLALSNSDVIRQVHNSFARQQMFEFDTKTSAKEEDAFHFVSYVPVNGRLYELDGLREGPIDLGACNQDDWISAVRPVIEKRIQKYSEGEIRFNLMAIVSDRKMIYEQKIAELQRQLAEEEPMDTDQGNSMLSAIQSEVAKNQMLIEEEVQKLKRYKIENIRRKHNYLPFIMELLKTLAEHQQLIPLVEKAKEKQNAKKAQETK
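Reagent: Ub-AMC substrate; assay system: Proteasome-associated human UCH37 deubiquitinase; controls: no-proteasome and no-compound wells; read-out: % inhibition of Ub-AMC cleavage fluorescence; timing: 30 min preincubation with enzyme, 25 min cleavage at room temperature; signal: AMC fluorescence from Ub-AMC cleavage, excitation 355 nm, emission 460 nm; buffer or medium: Tris-HCl pH 7.4 plus ovalbumin, ATP-MgCl2, DTT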
Ecoli rRNA inh OD600 – also measured in Ecoli rRNA inh; calls as there; OD600 change, %; measured here: OD600 growth;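 optical density of the mix in the first replicate; 0 = DMSO median and -100 = no signal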
Ecoli rRNA inh RFP – recorded beside Ecoli rRNA inh, whose call it bears; RFP signal change, %; measured here: RFP humanized mutant strains;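 first replicate; 0 = DMSO median and -100 = no signal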
Starred values were filed as active, the others as inactive; i = inactive; ? = inconclusive; . = not tested or not shown. These rows are one share of the data, so the mix of outcomes need not match the whole.

SMILES	Bfl-1 A1 inh	FGF22 binding	Ecoli rRNA inh	Ecoli rRNA inh OD600	Ecoli rRNA inh RFP	T cruzi repl	Beta cell apopt	Ecoli growth	AF4-AF9 inh	UCH37 inh
O=C(Cc1cccc(NC(=O)C2CCCN(C(=O)CCc3ccccc3)C2)c1)Nc1cccc(C(=O)N2CCCC2)c1 (centres undefined)	-0.1	i	-19*	0.2*	8.2*	.	1	0.64	-0.7	-0.2
O=S1c2ccccc2Oc2ccccc21	.	i	6	-7	0.1	.	.	0.7	-0.8	0.3
Cc1cc2[nH]ncc2cc1NC(=S)NC(=O)c1ccccc1	-1.6	.	.	.	.	-1	2	0.67	.	5.5
CC(C)/C(=N\NS(=O)(=O)c1ccc(Br)cc1)c1cccs1	0.2	i	12	10	2.0	5	.	.	-1.2	.
COC(=O)c1ccccc1NC(=O)c1ccc(COc2ccc3c(c2)CCC3)cc1	-0.2	.	.	.	.	-6	5	0.74	-3.7	-1.7
Cc1cc(C(=O)NCc2cccs2)nn1C	-0.8	i	10	4	0.4	1	-3	0.61	-1.1	1.3
COc1ccc(/C=N/N2CCN(c3ccc(Cl)cc3)CC2)cc1	-0.4	i	-1	5	-2.9	-3	.	.	-0.9	.
CCSc1cc(N2CCOCC2)nc(-c2ccc(Cl)cc2)n1	0.1	i	10	20	-2.9	23	-7	0.69	2.0	1.1
CCc1ccc(NC(=O)C2CCCN(S(=O)(=O)c3cccs3)C2)cc1 (centres undefined)	-0.5	i	-2	-7	-1.9	11	-8	0.7	0.8	2.3
c1ccc(OCCSc2nc3ccccc3o2)cc1	0.0	.	.	.	.	4	0	0.69	.	2.6
O=C(NCc1ccccc1)N1CCOCC1	0.3	i	4	4	-3.7	5	-12	0.66	0.9	2.8
C=C(C)CSc1nnc([C@H](CCSC)NC(=O)OC(C)(C)C)o1	-0.5	.	.	.	.	13	0	0.81	.	6.2
CSc1nc2oc3c(c2c2nncn12)CC(C)(C)SC3	0.6	.	.	.	.	-4	-2	0.72	.	-11
COc1cc([N+](=O)[O-])ccc1NC(=O)NCC1CCN(Cc2ccc(Cl)cc2)CC1	-0.2	i	-8	-4	12	-5	.	0.66	12	4.6
CCn1c(=NC(=O)CSC(C)=O)sc2cc(OC)ccc21	0.2	i	-4	-6	-1.6	4	-2	0.74	5.0	4.8
CN(C)c1ccc(N2C(=NC(=O)CCC3CCCC3)SC3CS(=O)(=O)CC32)cc1 (centres undefined)	-0.7	i	20	12	1.6	1	-3	0.67	-5.9	-7.9
Cc1cc(N2CCN(c3ccccc3)CC2)nc(-c2ccccc2O)n1	-0.4	.	.	.	.	-7	1	0.7	.	-26
CC(O)c1nc2ccccc2n1CC(=O)Nc1ccc2c(c1)OCCO2 (centres undefined)	0.4	.	4	5	3.1	-11	-5	0.75	-0.3	0.7
CC(CCc1ccc(O)cc1)NC1c2ccccc2-c2ccccc21 (centres undefined)	2.3	i	-40	-73	-1.3	31	3	0.66	4.4	1.5
COc1ccc(S(=O)(=O)N(CC(=O)NCc2ccco2)c2ccc(C)cc2)cc1OC	0.2	i	-7	-2	-0.5	1	2	0.64	-13	1.4
COC(=O)c1nc2ccc(N3CCOCC3)cc2c(C)c1C(=O)OC	0.7	i	-2	6	3.1	.	-6	0.73	-7.4	-32
N#Cc1ccccc1OCC(=O)NNC(=O)CCNC(=O)c1ccccc1	0.8	i	6	13	0.7	.	-1	0.64	-23	2.4
c1cncc(CNCc2ccco2)c1	0.8	i	11	22	0.0	-11	3	0.67	-17	-3.7
CCOC(=O)CN(C(=O)CSc1nnc(COc2ccc(OC)cc2)n1CC)c1ccccc1	0.4	i	-27*	-17*	-3.3*	1	-4	0.7	0.8	0.7
COc1ccc(C2CCCN2C(=S)Nc2cccc(Cl)c2)cc1OC (centres undefined)	-0.7	i	-14	-7	-2.6	-12	-4	0.67	-2.2	4.4
O=C(Nc1ccc(NC(=O)C2CCCCC2)nc1)c1cccs1	-1.0	i	-6	-2	-3.1	1	-6	0.65	-2.9	-1.5
CC(C)C1N=C2c3ccccc3N=C(SCC(=O)c3ccc(O)c(O)c3)N2C1=O (centres undefined)	-0.2	.	.	.	.	-4	2	0.63	.	4.9
O=C(COc1ccc(F)c(Cl)c1)c1ccc[nH]1	-8.9	.	.	.	.	-9	.	0.65	.	-0.2
O=C1c2ccc([N+](=O)[O-])cc2C(=O)N1CNc1ccccn1	0.1	i	16	18	1.4	-18	-5	0.66	-2.6	1.9
CCOc1ccc(N(C)S(=O)(=O)c2cc(-c3cc(C)no3)ccc2C)cc1	-0.3	i	-28	-26	-6.3	12	10	.	-3.5	.
O=C(Nc1nccs1)c1ccc([N+](=O)[O-])cc1Cl	-0.1	i	12	9	-2.1	9	-3	0.64	-18	0.5
COc1ccc(Cc2nnc(SCC(=O)N3CCc4ccccc4C3)o2)cc1	-0.1	i	-4	5	0.5	-1	-6	0.67	1.1	13
CN(C)S(=O)(=O)c1cccc(NC(=O)c2cc3c(cc2Cl)N2CCCCCC2=NS3(=O)=O)c1	-0.4	.	-4	-5	-0.2	-10	2	0.7	-1.4	2.4
Nc1cc(N)nc(SCc2ccc(Cl)cc2)n1	-0.3	i	-16	-19	-5.2	-6	-13	0.58	-6.6	4.5
CCCC(CCC)C(=O)Nc1c[nH]c(=O)[nH]c1=O	0.8	.	.	.	.	-8	0	0.69	.	5.6
O=C(O)c1ccc(Cl)c(S(=O)(=O)N(Cc2ccccc2)c2ccc(Cl)cc2)c1	0.8	i	-24	-29	0.9	-13	-3	0.69	1.6	-2.4
O=C(Nc1cccc(S(=O)(=O)Nc2ccccc2Cl)c1)c1ccc(Cl)nc1	-0.5	i	-37	-44	-16	-2	2	0.66	-2.3	-1.5
O=c1c2ccccc2nc2n1C1(CCCCC1)Cc1ccccc1-2	-0.2	.	.	.	.	26	2	0.7	.	-0.2
CC1CCN(C(=O)COC(=O)CCC(=O)c2cccs2)CC1	.	i	2	-2	-1.8	.	.	0.68	-2.1	0.3
CCOC(=O)c1ccc(N(CC(=O)NCC2CCCO2)C(=O)CCC(=O)Nc2cc(C)on2)cc1 (centres undefined)	0.3	i	7	16	3.2	2	-2	0.66	-0.6	4.3
O=C(OCC(=O)N1CCN(c2ccccc2)CC1)c1ncc(Cl)c(Cl)c1Cl	?	i	19	13	0.9	-2	-5	0.67	-0.1	4.1
CC1CC(OC(=O)C(O)c2ccccc2)CC(C)(C)N1C (centres undefined)	0.7	i	5	4	0.5	-17	.	0.71	-9.8	2.7
O=C(NCc1ccncc1)c1ccc(N2CCCC2)c([N+](=O)[O-])c1	0.2	i	-29	-37	-4.0	-4	0	0.64	2.2	3.3
Cc1ccsc1C(=O)c1sccc1C	-0.4	i	-1	0	-2.4	-12	2	0.67	0.4	2.0
C=C(Br)Cn1cnc2ccccc21	0.2	.	-2	-18	-5.0	-4	-2	0.64	-13	-2.4
Cc1ccc(S(=O)(=O)N(C)C)cc1NC(=O)CSc1nc2ccccc2c(=O)n1CC1CCCO1 (centres undefined)	0.3	i	-1	11	0.5	-2	1	0.71	-10	-0.8
O=C(O)C1C2CCC(O2)C1C(=O)NCCC1=CCCCC1 (centres undefined)	-0.3	.	.	.	.	-13	-2	0.74	.	-0.4
COC(=O)c1cc(-c2ccc(C)cc2)n[nH]1	-2.7	i	.	.	.	2	-6	0.69	-4.3	1.3
O=C(CSc1nnc(-c2ccco2)o1)c1ccc(F)c(F)c1	?	.	.	.	.	22	-4	0.69	.	-0.1
O=C(CN1CCN(c2ccccc2F)CC1)c1c[nH]c2ccc(F)cc12	1.1	.	.	.	.	24	-4	0.58	.	-0.2
Cc1cccc(OCCn2nnc3ccccc32)c1C	-4.8	i	-31	-33	-3.5	-6	8	0.61	-1.8	4.0
[O-]C1=N/[N+](=C/c2ccccc2Cl)CC1	0.9	.	.	.	.	-16	-3	.	.	6.6
CCCCN1C(=O)c2ccc(C(=O)NCCN3C(=O)S/C(=C\c4cccnc4)C3=O)cc2C1=O	0.8	.	.	.	.	10	-4	0.69	.	1.8
COc1ccc([C@@H]2[C@@H]3C(=O)N(C(C)(C)C)C(=O)[C@@H]3[C@]3(Cc4ccccc4)C(=O)N(c4ccc(C(F)(F)F)cc4)C(=O)N23)cc1	0.0	i	6	8	-2.2	20	2	.	-1.2	3.1
CSc1nc(N)nc2c1ncn2CC(=O)NCCNc1ccc([N+](=O)[O-])cn1	-0.3	i	20	23	-0.6	.	-1	0.7	-4.2	16
O=C(Nc1ccc(F)cc1)c1cccc(NC(=O)C2C3CC4OC(=O)C2C4C3)c1 (centres undefined)	1.3	.	.	.	.	-4	1	0.67	.	5.1
CN(CC(=O)Nc1c(Cl)cccc1Cl)C(=O)Cc1cccs1	0.4	i	.	.	.	.	0	0.67	-1.3	4.7
CS(=O)(=O)N1N=C(c2ccc3nccnc3c2)CC1c1ccccc1 (centres undefined)	2.2	i	8	1	-9.9	-36	2	0.67	3.8	-1.3
O=C(CSc1nnnn1-c1ccccc1)N1CCc2ccccc21	-0.4	.	.	.	.	21	.	0.7	.	4.3
Cn1nccc1NC(=O)Nc1ccc(Cl)cc1	0.1	i	-35*	-27*	-11*	-2	2	0.62	-8.8	3.5

The closing 2 compounds of the part above lead into the next:
SMILES	Bfl-1 A1 inh	FGF22 binding	Ecoli rRNA inh	Ecoli rRNA inh OD600	Ecoli rRNA inh RFP	T cruzi repl	Beta cell apopt	Ecoli growth	AF4-AF9 inh	UCH37 inh
O=C(CSc1nnnn1-c1ccccc1)N1CCc2ccccc21	-0.4	.	.	.	.	21	.	0.7	.	4.3
Cn1nccc1NC(=O)Nc1ccc(Cl)cc1	0.1	i	-35*	-27*	-11*	-2	2	0.62	-8.8	3.5
CC(OC(=O)c1cccc(S(=O)(=O)N(C)C)c1)C(=O)NCC(=O)Nc1ccc(F)c(F)c1F (centres undefined)	.	i	3	4	-0.6	.	.	0.66	-1.0	1.8
CC(OC(=O)CCN=C1NS(=O)(=O)c2ccccc21)C(=O)N(C)c1ccccc1 (centres undefined)	0.4	i	1	-2	-1.7	-3	-2	0.72	1.8	3.3
CN(C(=O)COc1cc(C(F)(F)F)nn1C)c1ccccc1	-0.1	i	18	11	0.3	-6	-3	0.66	-0.7	-0.6
CCOC(=O)N/N=C\c1ccc(-c2cccc(C(F)(F)F)c2)o1	0.4	.	-26	-36	0.0	51	-8	.	7.7	.
